2A Renilla = lowers the Renilla signal of an FMDV 2A StopGo reporter | HEK cells with a luciferase reporter of 2A StopGo recoding | Potency, µM (doses to about 57.5 µM), without a hit: top-dose signal change, negative = less light | actives 0.32% (n = 120,000) | AID 1745857; active means well fitted falling curve with a large enough effect; inconclusive means small, poorly fitted or top-dose-only effect; inactive means no such curve, though single readings can be large or run the other way; note: nearly all actives have a fitted effect of over 55% in size; overnight with compound
StopGo FLuc = lowers the firefly signal of an FMDV 2A StopGo reporter. actives 0.23% (n = 120,000). Potency, µM (top dose mostly 57.5 µM), for inactives: at the top dose signal change, negative = less light. HEK cells with a luciferase reporter of 2A StopGo recoding; active = well fitted falling curve with a large enough effect; inconclusive = small, poorly fitted or top-dose-only effect; inactive = no such curve, though single readings can be large or run the other way; note: nearly all actives have a fitted effect of over 60% in size; overnight with compound
Numbers without * were called inactive; ? = inconclusive; & = joins results of further samples; [ ] = another dose, or the depositor's remark. % is set by controls: 0 for no effect and ±100 for the full control effect; potency is the fitted concentration of half-maximal effect.

molecule	2A Renilla	StopGo FLuc
CCCN1CCC[C@@H]2Cc3nc(N)ncc3C[C@H]21	-15%	?
COc1ccc(OCCCOc2ccc(Cl)cc2/C=N/NC(N)=O)cc1	8%	-3%
N#CC1(NC(=O)CNc2ccc(F)cc2Cl)CCCC1	4%	12%
CC(C)CCC(CCNCc1ccco1)c1ccco1 (stereo not given)	-18%	?
O=C1c2ccccc2S(=O)(=O)N1Cc1nc(-c2ccc(Cl)cc2Cl)cs1	-10%	104%[activator]
NC(=S)Nc1cccc2ncccc12	-4%	0%
Cc1ccc(-c2nn(CC(=O)NCc3ccccc3)c3c2cnc2ccc(F)cc23)cc1C	-12%	41%[activator]
COc1cc(/C=C/c2ccc3cccc(O)c3n2)ccc1O	-1%	305%[activator]
CC(=O)NC(CC(=O)N(CC(F)(F)F)C1CC1)c1cccs1 (stereo not given)	3%	-6%
COc1ccccc1CC(=O)Nc1ccc2nc(N3CCC(C)CC3)cc(C)c2c1	-8%	-9%
COc1ccc(-n2c(=O)c3c(c4cc(OC)ccc4n3C)n(CC(=O)NCC3CCCO3)c2=O)cc1 (stereo not given)	-7%	-1%
C=CCNS(=O)(=O)c1cccs1	22%	3%
CCN(CC)C(=O)Cn1nnc2sc(-c3ccccc3)cc2c1=O	0%	52%[activator]
COc1ccc(S(=O)(=O)NCC(=O)O)cc1OC	26%	4%
Cc1oc(-c2cccs2)nc1CC(=O)N1CCC2(CC1)NC(=O)NC2=O	-6%	-13%
CC1=C(C(=O)Nc2cc(Cl)ccc2C)C2(CCCCC2)OC1=O	3%	17%
CC(=O)N/C(=C/c1ccccc1)C(=O)OC(C)C(=O)NC(C)c1ccc(Cl)cc1Cl (stereo not given)	38%[activator]	-16%
C=CCNc1nc(N)c(C(=O)c2ccc(Cl)cc2)s1	1%	122%[activator]
CCOc1cccc2cc(C(=O)NCc3ccc(OC(F)F)c(OC)c3)c(=O)oc12	-4%	0%
Cc1cc(C)c2c(=O)cc(C(=O)Nc3ccccc3Cl)oc2c1	-5%	-13%
Cc1ccc(S(C)(=O)=O)cc1C(=O)OCC(=O)C(C)(C)C	8%	1%
CCCNC(=O)NC(=O)CN(C)C(C)C1CC1 (stereo not given)	-12%	3%
CCOC(=O)c1c(-c2ccc(C)cc2)csc1NC(=O)c1ccc(C(C)(C)C)cc1	-13%	-14%
O=C(NCCSC1CCCC1)c1cccs1	44%[activator]	0%
Cc1ccccc1C(=O)OCCCN(C)C	-9%	6%
CCN(CC)CCCC(C)Nc1c2ccc(Cl)cc2nc2ccc(OC)cc12 (stereo not given)	20%	31%[activator][11.5 µM]
COc1cccc(NC(=O)CCNS(=O)(=O)c2ccc3c(c2)oc(=O)n3C)c1	-1%	-11%
O=C(O)c1ccc(-c2ccc(Cc3ccc(-c4ccc(C(=O)O)cc4)o3)o2)cc1	-5%	19%
CCn1nc(C)c(CCN(C)C(=O)Nc2cc(Cl)ccc2C)c1C	9%	16%
CC1(C)N=C(c2ccc(Br)cc2)C(=S)N1	9%	69%[activator]

Profiles as entered above:
`CCn1nc(C)c(CCN(C)C(=O)Nc2cc(Cl)ccc2C)c1C` as listed: 2A Renilla: 9%; StopGo FLuc: 16%
`COc1cc(/C=C/c2ccc3cccc(O)c3n2)ccc1O` as listed: 2A Renilla: -1%; StopGo FLuc: 305%[activator]

Arranged by SMILES length (lowest first): some entries from above
molecule	2A Renilla	StopGo FLuc
CCN(CC)C(=O)Cn1nnc2sc(-c3ccccc3)cc2c1=O	0%	52%[activator]
CCn1nc(C)c(CCN(C)C(=O)Nc2cc(Cl)ccc2C)c1C	9%	16%
Cc1oc(-c2cccs2)nc1CC(=O)N1CCC2(CC1)NC(=O)NC2=O	-6%	-13%

(listing goes on)
molecule	2A Renilla	StopGo FLuc
CCCC(C)NC(=O)NC(C)c1cccc(Cl)c1 (stereo not given)	2%	-6%
COc1ccc(NC(=O)C2CCCN(S(=O)(=O)c3ccc4c(c3)CCCN4C(C)=O)C2)cc1 (stereo not given)	7%	-3%
CCC(=O)N1CCc2cc(S(=O)(=O)NCCC(=O)NCc3ccc(OC)cc3)ccc21	18%	-3%
CCCC(NC(C)=O)C12CC3CC(CC(C3)C1)C2 (stereo not given)	-3%	-3%
CCCc1nn2c(=O)cc(COC(=O)c3ccc(NC(=O)COc4ccccc4F)cc3)nc2s1	?	?
CCCNC(=O)C1CCN(c2ncnc3c2nc2n3CCCCC2)CC1	11%	5%
COc1ccc(NC(=O)Cc2sc(C)nc2-c2cccs2)cc1Cl	18%	40%[activator]
O=C(COCc1cc(-c2cccs2)on1)NCc1ccc(Cl)cc1	-17%	-25%
CN(CC(=O)NC1CCCCNC1=O)Cc1c(F)cccc1Cl (stereo not given)	-14%	-14%
COc1ccc(NC(=O)CSc2cn(CC(=O)N3CCCCC3)c3ccccc23)c(OC)c1	5%	-4%
CSc1nn(CC(=O)Nc2ccc(C)cc2C)c(N)c1S(=O)(=O)c1ccc(Cl)cc1	11%	-11%
COc1ccccc1NC(=O)c1ccc2[nH]c(C)cc(=O)c2c1	-12%	-5%
CCCCCCCCOC(=O)/C(C#N)=C/c1c[nH]c2ccccc12	-6%	9%
Cc1cc(Nc2ccccc2C)c2c([N+](=O)[O-])cc(C)c(C)c2n1	58%[activator]	0%
N#CC1=C(SCc2ccccc2Br)NC(=O)C(C#N)C12CCCCC2 (stereo not given)	2%	?
Cc1ccccc1-c1[nH]c2ccc(C(C)(C)C)cc2c1C=O	?	?
N#Cc1ccc(OCCOc2ccc3ccc(=O)oc3c2)cc1	43%[activator]	19%
Cc1c(C)[n+](=O)c2cc(F)c(F)cc2n1[O-]	21%	0%
COc1cc(/C=C(/C#N)C(=O)O)ccc1OC(=O)c1cccs1	11%	12%
CCc1ccccc1NC(=O)CN1CCCN(Cc2cccc(OC)c2)S1(=O)=O	7%	-3%
Cc1cc(OCC(C)CN2CCC(C(O)(c3ccccc3)c3ccccc3)CC2)ccc1Br (stereo not given)	-3%	-10%
Cc1cc(C)c(NC(=O)CSc2ncnc3ccccc23)c(Cl)c1	-15%	0%
Cc1ccc(NC(=O)Cn2c(=O)n(CC3CCC(C(=O)NC(C)C)CC3)c(=O)c3sccc32)cc1 (stereo not given)	-7%	-5%
CCOc1ccccc1NC(=O)Cn1cc(C(=O)c2ccc(Cl)cc2)c(=O)c2ccc(C)nc21	-6%	-8%
CS(=O)(=O)NCCc1ccc(C(=O)COc2ccc(-c3ccccc3)cc2Cl)s1	-22%	-15%
CCN(CC)CCCNC(=O)Cc1csc2nc(-c3ccc(Cl)cc3)cn12	-15%	33%[activator]
CCc1ccc(NC(=O)CN2C(=O)CC(c3ccccc3)Sc3ccccc32)cc1 (stereo not given)	-9%	-5%
Cc1cc(C)c(C(=O)Nc2ccccc2C)c(SCC(=O)NC2CCCC2)n1	11%	-1%
O=C(NC1C2CC3CC(C2)CC1C3)c1ccc(-c2ccc(Br)cc2)o1 (stereo not given)	16%	172%[activator]
CC(OC(=O)c1ccc2c(c1)NC(=O)CS2)C(=O)NC1CCCC1 (stereo not given)	9%	2%
Cn1cnc2c1c(=O)n(CCCSc1nnnn1-c1cccc(F)c1)c(=O)n2C	-4%	0%
Cc1ccccc1NCc1c(C#N)c2ccccc2n1C	34%[activator]	36%[activator]
COc1ccccc1C(O)c1nccn1Cc1ccccc1 (stereo not given)	-5%	7%
COc1ccc2c(c1)c1c(c(=O)n(-c3ccccc3C)c(=O)n1Cc1cccc(C(F)(F)F)c1)n2C	-14%	-20%
CCc1ccc(NCc2cc3ccc(OC)cc3n(CC(=O)Nc3ccc(C)c(Cl)c3)c2=O)cc1	0%	54%
Cc1ccc(-n2c(CCC(=O)O)ccc2-c2cccs2)cc1C	-1%	34%[activator]
CCc1c(-c2ccc(C)cc2)nc2ccccc2c1C(=O)O	11%	2%
CCC1CCCN(C(=O)Cn2cnc3c2c(=O)n(C)c(=O)n3C)C1 (stereo not given)	-7%	5%
CCc1cccc(CC)c1NC(=O)C(C)Sc1ccc(C)cc1 (stereo not given)	-3%	-1%
Cc1cc(C)nc(NC(c2ccccn2)c2cc(C)sc2NC(=O)c2ccco2)n1 (stereo not given)	1%	19%
Cc1[nH]c(=O)[nH]c(=S)c1C#N	5%	-8%
Cc1cc(O)c2c(C)c(CC(=O)N3CCN(C)CC3)c(=O)oc2c1	-10%	-3%
COc1cc(C(=O)Nc2cccc3cccnc23)ccc1C	0%	53%[activator]
CC1=C(C(=O)Nc2ccc(C)cc2C)C(c2ccc(Br)cc2)n2ncc(C(=O)Nc3cccc(C)c3)c2N1 (stereo not given)	-5%	10%
Cc1ccc(Nc2cc(C)nc3c(C)c(C)cc([N+](=O)[O-])c23)c(C)c1	?	-7%
COCCn1c(SCC(=O)Nc2cccc(OC)c2)nc2c(oc3ccccc32)c1=O	7%	-1%
COc1ccc(NC(=O)C2CCN(S(=O)(=O)c3c(C)noc3/C=C/c3ccc(C)cc3)CC2)cc1Cl	-11%	-9%
N#Cc1nc(-c2cccc3ccccc23)oc1NCCc1ccccc1	10%	0%
CCCS(=O)(=O)N1CC(=O)N(c2ccc(C)cc2)C(C)(C(=O)NC2CCCCCC2)C1 (stereo not given)	-6%	-10%
CC1CCN(C(=O)CSc2nc3c([nH]c4ccccc43)c(=O)n2-c2ccccc2)CC1	-1%	-1%
COc1ccc(-c2ocnc2C(=O)Nc2ccc3c(c2)OCCO3)cc1OC	43%[activator]	-34%
O=C(CCC1N=C2c3ccccc3N=C(SCc3cccc(F)c3)N2C1=O)NCc1ccc(F)cc1 (stereo not given)	-6%	-12%
CN(C)C(=O)CN(C)C(=O)Cn1c(=O)c2c(ncn2Cc2ccco2)n(Cc2ccccc2)c1=O	-3%	5%
Cc1ccc2snc(C(=O)N3CCN(C(=O)Nc4ccccc4)CC3)c2c1	-12%	0%
Cc1cc(NC(=O)Cn2c(=O)nc(-c3ccccc3F)c3cc(Cl)ccc32)ccc1Br	-10%	-3%
O=C(Nc1ccc(CCO)cc1)c1cc2ccccc2oc1=O	-2%	-53%
CC(C)c1ccc(NS(=O)(=O)c2ccc3c(c2)-c2oncc2CO3)cc1	284%[activator]	7%
CCS(=O)(=O)n1nc(-c2ccco2)nc1NCc1ccc(C(C)C)cc1	36%[activator]	69%[activator]
Cc1ccc2c(C)cc(SCC(=O)NC3CC3)nc2c1	11%	23%
CCOC(=O)c1c(NC(=O)CSc2cn(CCNC(=O)c3c(F)cccc3F)c3ccccc23)sc2c1CCCC2	5%	2%

Copied from the entries so far (5 entries):
molecule	2A Renilla	StopGo FLuc
Cn1cnc2c1c(=O)n(CCCSc1nnnn1-c1cccc(F)c1)c(=O)n2C	-4%	0%
Cc1ccccc1NCc1c(C#N)c2ccccc2n1C	34%[activator]	36%[activator]
COc1ccccc1C(O)c1nccn1Cc1ccccc1 (stereo not given)	-5%	7%
COc1ccc2c(c1)c1c(c(=O)n(-c3ccccc3C)c(=O)n1Cc1cccc(C(F)(F)F)c1)n2C	-14%	-20%
CCc1ccc(NCc2cc3ccc(OC)cc3n(CC(=O)Nc3ccc(C)c(Cl)c3)c2=O)cc1	0%	54%

Taken from above.
StopGo FLuc result of `N#Cc1nc(-c2cccc3ccccc23)oc1NCCc1ccccc1` is entered as 0%
StopGo FLuc result of `COc1ccc(-c2ocnc2C(=O)Nc2ccc3c(c2)OCCO3)cc1OC` is entered as -34%

More results
molecule	2A Renilla	StopGo FLuc
O=C1CC(c2nc3ccccc3n2Cc2c(F)cccc2Cl)CN1c1cccc(C(F)(F)F)c1 (stereo not given)	-13%	2%
Cc1ccc(S(=O)(=O)N(CC(=O)NCC2CCCO2)c2cccc(C)c2)cc1 (stereo not given)	95%[activator]	2%
CC(C)C(=O)N1CCCC(CN2CCN(c3ccccn3)CC2)C1 (stereo not given)	-7%	12%
CCc1ccccc1NC(=O)c1nc2ccccc2nc1N(CC)CC	6%	-3%
OCCOc1ccc(CNCc2ccco2)cc1	-6%	5%
CCN1CCC2(CC1)Oc1c(OC)cccc1C1CC(c3ccc4c(c3)OCCO4)=NN12 (stereo not given)	93%[activator]	232%[activator]
CC(=O)NCCNC(=O)CCCn1c(=O)[nH]c2ccsc2c1=O	-9%	-18%
CCONC(=O)C(C)NC(=O)c1cccs1 (stereo not given)	18%	39%[activator]
Brc1ccc(-c2nc(N3CCN(c4ccccc4)CC3)c3ccccc3n2)cc1	4%	-10%
Cc1ccc(CN(C(=O)c2cc(=O)c3cc(C)cc(C)c3o2)C2CCS(=O)(=O)C2)cc1 (stereo not given)	0%	20%
COc1ccc(CCNC(=O)C(CC(C)C)N2Cc3ccccc3C2=O)c(OC)c1OC (stereo not given)	30%&34%	-6%&-9%
Cc1cc(C)n2nc(N(Cc3ccccc3)S(=O)(=O)c3ccccc3)nc2n1	153%[activator]	-10%
CSCC(=O)NCc1ccc(CN2CCCC2)cc1	-7%	0%

Screening data from PubChem BioAssay.

Only part of the results is shown; the hit share may differ from the screen's.
